Screens deposited in PubChem by National Center for Advancing Translational Sciences (NCATS).
Cruzain noTriton – inhibitors of Trypanosoma cruzi cruzain without detergent; P25779; purified cruzain, Z-FR-AMC fluorescence, no detergent; Potency, µM, without a hit: max response, negative = inhibition, usual class: inhibitors; 200,000 tested, 2.3% active; AID 1476; active = well fitted curve in the direction sought with a large enough effect; inconclusive = small, poorly fitted or top-dose-only effect, or another doubt; inactive = no such curve, though single readings can be large; an effect the other way counts as inactive or inconclusive;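 also: plate controls were enzyme without inhibitor for no effect and buffer without enzyme for full effect; nearly all actives have a fitted effect of over 40% in size; top concentration of the series not given in the record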
Target sequence (P25779 123-467 limits assumed): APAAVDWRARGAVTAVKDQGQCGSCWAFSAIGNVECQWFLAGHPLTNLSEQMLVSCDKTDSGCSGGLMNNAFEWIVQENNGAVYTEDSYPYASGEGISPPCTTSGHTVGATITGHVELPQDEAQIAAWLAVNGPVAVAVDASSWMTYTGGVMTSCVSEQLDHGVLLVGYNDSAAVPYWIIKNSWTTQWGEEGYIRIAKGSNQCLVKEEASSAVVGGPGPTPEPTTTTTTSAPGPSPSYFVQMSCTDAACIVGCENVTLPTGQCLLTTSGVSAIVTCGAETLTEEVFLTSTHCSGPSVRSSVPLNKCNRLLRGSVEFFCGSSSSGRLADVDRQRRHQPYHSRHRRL
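Detergent-free condition (0.00005% Triton X-100) in acetate buffer pH 5.5 with DTT. 1.5 nM enzyme and compound were pre-mixed 15 min, then 2 uM Z-FR-AMC substrate added; reaction progress from fluorescence change between first and third reads (60 s).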
Cruzain Triton – cruzain (T. cruzi) inhibition with detergent | Potency, µM, inactives show max response, negative = inhibition, most hits filed as inhibitors | 200,000 tested, 0.43% active | purified cruzain, Z-FR-AMC fluorescence, 0.01% Triton; active = well fitted curve in the direction sought with a large enough effect; inconclusive = small, poorly fitted or top-dose-only effect, or another doubt; inactive = no such curve, though single readings can be large; an effect the other way counts as inactive or inconclusive;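 also: plate controls were neutral wells for no effect and buffer without enzyme for full effect; nearly all actives have a fitted effect of over 40% in size; top concentration of the series not given in the record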
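Purified cruzain (1.5 nM final) was preincubated with compounds for 15 min at room temperature in 100 mM sodium acetate pH 5.5, 5 mM DTT, 0.01% Triton X-100. Reaction started with 2 uM Z-FR-AMC; AMC fluorescence change over 60 s gave activity.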
RE007 growth inh – less growth of the S. pombe RE007 Vpr strain | S. pombe RE007 Vpr strain, BacTiter-Glo ATP luminescence, 24 h; control for the full effect not named in the record | AID 651644 | 360,000 tested, 0.21% active | Potency, µM (doses to about 92.2 µM), for inactives: top-dose activity change, negative = less growth; active = well fitted falling curve with a large enough effect; inconclusive = small, poorly fitted or top-dose-only effect; inactive = no such curve, though single readings can be large or run the other way;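 also: % is scaled to controls: 0 for no effect and ±100 for the full control effect; nearly all actives have a fitted effect of over 50% in size; the assay follows cell death caused by Vpr and the record does not say whether a fall means rescue or toxicity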
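Fission yeast strain RE007, carrying one chromosomally integrated HIV-1 vpr copy, was seeded at OD 0.01 in PMG+AL medium with 23 nL pinned compound. After 24 h at 30 °C and 99% humidity, viability was read by BacTiter-Glo luminescence.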
NS1 function inh – inhibitors of influenza NS1 protein function; S. cerevisiae slowed by influenza A NS1, growth recovery by OD600; Potency, µM (doses to about 46.1 µM), for inactives: top-dose activity, positive = more growth; 270,000 tested, 0.4% active; AID 2326; also: actives are rising curves; nearly all actives have a fitted effect of over 50% in size
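S. cerevisiae expressing influenza A NS1, grown in glucose, washed, then diluted 1:100 into pH 6.0 -URA galactose medium with 23 nl compound. Growth recovery read as OD600; NS1-free strain serves as control.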
MARV entry inh – Marburg virus entry inhibition; AID 540276; Potency, µM (titrated, usually from 37.8 µM), without a hit: at the highest dose activity change, negative = inhibition, hits mostly inhibitors; Marburg virus pseudotyped entry inhibition, cell reporter; control for the full effect not named in the record; about a third of the inactives were read at about 46 µM; 300,000 tested, 1.8% active; active = well fitted inhibition curve with a large enough effect; inconclusive = small, poorly fitted or top-dose-only effect, or effect the other way; inactive = flat fitted curve, though single readings scatter; tested in HEK293 cells; about a fifth of its hits are not listed in these tables; also: % is scaled to controls: 0 for no effect and ±100 for the full control effect; luciferase read-out
SARS PLpro yeast – inhibitors of SARS-CoV papain-like protease in yeast | AID 485353 | Potency, µM (doses to about 32.9 µM), without a hit: at the highest dose activity, positive = growth rescue | S. cerevisiae expressing SARS-CoV PLpro, growth rescue; control for the full effect not named in the record | 330,000 tested, 0.19% active; also: 0% is about no effect; nearly all actives have a fitted effect of over 55% in size; growth read by luminescence after 48 h
LASV entry inh – Lassa virus entry inhibition; Lassa virus pseudotype entry inhibition, cell reporter; control for the full effect not named in the record; Potency, µM (series often up to 37.9 µM), inactives show at the highest dose activity change, negative = inhibition, usual class: inhibitors; 300,000 tested, 1.2% active; AID 540256; active means well fitted inhibition curve with a large enough effect; inconclusive means small, poorly fitted or top-dose-only effect, or effect the other way; inactive means flat fitted curve, though single readings scatter; tested in HEK293 cells; also: % is scaled to controls: 0 for no effect and ±100 for the full control effect; nearly all actives have a fitted effect of over 50% in size; luciferase read-out
2A StopGo – lowers the luciferase signal of an FMDV 2A StopGo reporter. human cells with a luciferase reporter of 2A StopGo recoding; control for the full effect not named in the record. Potency, µM (top dose mostly 57.9 µM), inactives show top-dose signal change, negative = less light. 410,000 tested, 1.2% active. AID 1159524; active = well fitted falling curve with a large enough effect; inconclusive = small, poorly fitted or top-dose-only effect; inactive = no such curve, though single readings can be large or run the other way; tested in HEK293T cells; also: % is scaled to controls: 0 for no effect and ±100 for the full control effect; nearly all actives have a fitted effect of over 45% in size; luciferase light after 4 h
The depositor's hits bear a star; ? = inconclusive; / = not tested or not shown; [ ] = dose if it differs, or a comment. Unless noted, calls follow the shape of the dose curve; as a rule, active means well fitted rising curve with a large enough effect; inconclusive means small, poorly fitted or top-dose-only effect; inactive means no such curve, though single readings can be large or run the other way. Potency is read from the fitted curve at half-maximal effect.

Structure	Cruzain noTriton	Cruzain Triton	RE007 growth inh	NS1 function inh	MARV entry inh	SARS PLpro yeast	LASV entry inh	2A StopGo
CN1CCN(c2nc3ccccn3c(=O)c2C=C(C#N)C#N)CC1	/	/	-15%	4%	1%	0%	6%	-11%
Cc1[nH]n(-c2ccc([N+](=O)[O-])cc2)c(=O)c1C=NCCN1CCN(C(=O)c2ccccc2F)CC1	?	-12%	?	1%	?	-15%	-21%	7%
COc1cc(NC(=O)COc2cccc(OC)c2)cc(OC)c1	-12%	-5.7%	-15%	-12%	2%	2%	9%	/
O=C(Nc1ccc(N2CCOCC2)cc1N1CCOCC1)c1cccc([N+](=O)[O-])c1	/	/	-6%	-8%	-3%	2%	-17%	-12%
CCN(CC)S(=O)(=O)c1ccc(N2CCOCC2)c(NC(=O)c2cccc3ccccc23)c1	?	-2.8%	2%	?	-29%	-15%	?	0%
O=C(N[C@@H](Cc1c[nH]c2ccccc12)C(=O)O)C1CCN(S(=O)(=O)c2ccc(Cl)cc2)CC1	/	/	10%	19%	-4%[46.1 µM]	-4%	6%	11%
O=C(NCC1OCCc2ccccc21)c1ccc(NC(=O)c2ccccc2Cl)cc1 (stereo not given)	-23%	-0.7%	-1%	9%	7.9µM*	13%	?	14µM*
O=C(NC(=S)NC1C2CC3CC(C2)CC1C3)c1ccccc1 (stereo not given)	/	/	9%	-17%	11%[46.1 µM]	-5%	?	13%
C[C@H]1CCC/C=C/[C@@H]2C[C@H](O)C[C@H]2[C@H](O)[C@H](S(=O)c2ccc(O)cc2)CC(=O)O1 (stereo not given in full)	/	/	-14%	/	?	/	1.3µM*	-19%
O=C(COc1cc(Cl)ccc1Cl)N1CCNC1=O	/	/	-7%	/	5%[46.1 µM]	-3%	10%	2%
Cc1c(C(=O)NCCS(=O)(=O)N2CCN(c3ccccc3F)CC2)cccc1[N+](=O)[O-]	/	/	-6%	4%	/	0%	/	-24%
CCOC(=O)CNC(=O)c1cc(C)oc1C	19%	0.3%	/	6%	0%	3%	/	/
O=C(c1ccc(F)cc1)N1CCC2(CC1)NCCc1[nH]cnc12	/	/	-3%	10%	/	9%	/	-3%
COCCn1c(=NC(=O)c2ccc3c(c2)OCCO3)sc2cc(C(=O)OC)ccc21	-4%	4.3%	/	/	/	/	?	0%
C#CCNc1c2c(nc3ncnn13)CC(C)CC2 (stereo not given)	/	/	13%	-2%	/	-1%	/	-6%
CCOC(=O)C1=C(C)N=C2c3ccccc3C(=O)C2C1c1ccc(C)cc1 (stereo not given)	-4%	-3.6%	-9%	18%	?	1%	?	-10%
CC(CN1C(C)CCCC1C)OC(=O)c1ccccc1F (stereo not given)	/	/	-6%	3%	/	-1%	/	-4%
CCOC(=O)C1CCN(C(=O)CN(c2cccc(C(F)(F)F)c2)S(C)(=O)=O)CC1	22%	1.2%	24%	5%	-26%[46.1 µM]	-3%	1%	5%
COc1ccc(CC(=O)Nc2ccc(N3CCCC3)c(C)c2)cc1	/	/	6%	5%	2%[46.1 µM]	-3%	22%[46.1 µM]	11%
Cc1ccc(CNC(=O)C2(C(F)(F)F)C/C(=C\Cc3ccccc3)CCCO2)o1 (stereo not given)	/	/	-2%	13%	/	-8%	/	-8%
O=C(COc1cccnc1[N+](=O)[O-])Nc1ccc(N2CCOCC2)cc1	/	/	3%	7%	-2%[46.1 µM]	0%	9%	-9%
O=C(c1ccc(S(=O)(=O)N2CCCCC2)cc1)N1CCc2ccccc2C1	/	/	34%	-10%	?	1%	-44%	-17%
CCOC(O)[C@H]1N[C@@H](c2ccc(Cl)cc2)[C@@H]([N+](=O)[O-])[C@@H]1c1ccccc1 (stereo not given in full)	-2%	-4.7%	0%	-54%	3%	-47%	0%	1%
Nn1c(SCC(=O)Nc2ccccc2F)nnc1-c1cccnc1	-14%	1.2%	18%	1%	?	-14%	-20%	10%
CCS(=O)(=O)c1nc(S(=O)(=O)c2ccc(Cl)cc2)c(N2CCN(C)CC2)s1	/	/	-2%	12%	/	4%	/	0%
CN(C)/C=N/C(=S)Nc1ccc(Cl)cc1	/	/	-15%	-3%	?	-1%	3%	49%[activator]
CCN(CC)C(=O)c1sc2c(c1C)c(=O)n(-c1ccc(C)c(C)c1)c(=O)n2Cc1cc(=O)n2ccccc2n1	?	-2.7%	/	/	/	/	24%[46.1 µM]	-26%
Cc1c(C(=O)c2ccc(Br)cc2)c(=O)n(C)c(=O)n1C	/	/	-4%	1%	/	0%	/	-2%
O=C(COC(=O)C1CC1)Nc1ccc(Oc2ccccc2)cc1	-1%	-3.0%	24%	-33%	6%	-11%	-12%	15%
COc1ccc(C(=O)CCNc2ccc(C)c(Cl)c2)cc1	-66%	-0.9%	-23%	3%	-4%	-19%	1%	20%
O=C(Nc1cccc(C(F)(F)F)c1)C12CC3CC(CC(C3)C1)C2	-5%	-4.6%	9%	2%	9%	-25%	1%	-10%
Cc1ccc(NC(=O)Cc2ccsc2)cc1Cl	/	/	-11%	-2%	/	-3%	/	39%[activator]
COc1ccccc1NC(=O)Cc1coc2cc(C)ccc12	-13%	-4.4%	?	-58%	7%	-4%	4%	33%[activator]
CC(=O)N1CCc2c(sc3c2c(=O)n(-c2ccc(C)cc2)c(=O)n3Cc2ccccc2C)C1	?	-5.4%	/	/	-5%[46.1 µM]	/	/	-13%
COc1ccc(Cc2nnc(SC(C)C(=O)Nc3ccc(C(N)=O)cc3)o2)cc1 (stereo not given)	/	/	2%	/	6%	/	8%	2%
CCOc1nc(Nc2ccccc2F)nc(OCC)n1	/	/	13%	-15%	/	4%	/	5%
COc1ccc(-c2cc(=O)[nH][nH]2)cc1OC	1%	1.5%	5%	26%	1%	11%	11%	-7%
CCCC(C)C(=O)Nc1nc(C)c(-c2csc(Nc3cc(Cl)ccc3C)n2)s1 (stereo not given)	13µM*	4.1%	7%	19%	/	-4%	/	-24%
Clc1cnc(N/N=C/c2ccco2)c(Cl)c1	-13%	-14%	41%	-18%	?	-51%	?	0%
O=C(NCc1ccccc1)N1CCN(c2ccc(Cl)c(Cl)c2)CC1	-29%	2.0%	-16%	2%	?	-2%	?	-15%
O=C(Nc1cc(C(=O)N2CCOCC2)cc(C(=O)N2CCOCC2)c1)c1cc(F)c(F)cc1Cl	-5%	3.0%	-6%	-14%	0%	4%	6%	/
Cc1ccc(-n2c(=O)c3c4c(sc3n(CC(=O)Nc3cccc(Cl)c3)c2=O)CCCCC4)cc1C	-17%	-1.1%	/	/	?	/	12%[46.1 µM]	-11%
CC1OC(OC2C=C3CCC4C(CCC5(C)C(c6ccc(=O)oc6)CCC45O)C3(C)CC2)C(O)C(OC2OC(CO)C(O)C(O)C2O)C1O (stereo not given)	/	/	14%	/	/	/	/	?
CCN(C(=O)CSc1nnc(-c2cccs2)o1)C1CCS(=O)(=O)C1 (stereo not given)	/	/	3%	17%	0%[46.1 µM]	-1%	/	3%
COc1ccc(NC(=O)CCCn2c(=O)c3sccc3n(Cc3ccc(C)cc3C)c2=O)cc1	0%	-3.0%	17%	10%	?	-4%	-22%	-11%
COc1cccc(CNC(=O)c2ccc(CS(=O)Cc3ccc(C)cc3)o2)c1 (stereo not given)	/	/	6%	11%	/	3%	/	-11%
COc1ccc(OC)c(C2C3=C(N=c4s/c(=C\c5cccc(O)c5)c(=O)n42)c2ccccc2CC3)c1 (stereo not given)	3.2µM*	3.5%	16%	?	?	2%	?	?
CCOC(=O)c1c(NC(=O)CSc2nnc(CNc3ccc(OC)cc3)n2C)sc(C)c1C	?	0.7%	9%	-35%	?	-2%	-12%	-9%
CN1CCN(c2cc([N+](=O)[O-])ccc2Cl)CC1	/	/	-1%	/	-2%	-3%	5%	0%
Cc1nc([N+](=O)[O-])cn1CC(=O)Nc1ccc([N+](=O)[O-])cc1	/	/	10%	8%	0%[46.1 µM]	14%	2%[46.1 µM]	42%[activator]
CC(=O)N/C(=N/c1nc(C)cc(C)n1)Nc1cc(C)cc(C)c1	/	/	25%	5%	9%[46.1 µM]	4%	-11%[46.1 µM]	-9%
COc1cc2c(cc1CN1CCN(C(=O)c3cc(OC)c(OC)c(OC)c3)CC1)OCO2	/	/	4%	-9%	?	-4%	2%[46.1 µM]	1%
COc1ccc(Cl)cc1NC(=S)NNC(=O)c1cccnc1	/	/	-12%	/	0%[46.1 µM]	6%	19%	17%
C=CCn1c(C)cc(/C([O-])=C(/C(=S)Nc2ccc(OC(F)F)cc2)[n+]2ccc(N(C)C)cc2)c1C	/	/	-20%	3%	7%[46.1 µM]	0%	12%	0%
CN1CCN(C(=O)/C(=C/c2cccs2)NC(=O)c2cccs2)CC1	-1%	-3.0%	4%	-2%	?	3%	-2%	-6%
Cn1cc(/C=C/C(=O)N2CCCC(C(=O)c3ccc(C(F)(F)F)cc3)C2)cn1 (stereo not given)	/	/	6%	6%	5%[46.1 µM]	-1%	7%	1%
Cc1ccc(COC(=O)CN2C(=O)NC3(CCCCC3C)C2=O)cc1 (stereo not given)	/	/	-9%	/	-34%[46.1 µM]	-1%	0%	-13%
COc1ccc(CC(=O)N2CCC3(CC2)NCCc2[nH]cnc23)cc1	/	/	9%	-1%	-8%[46.1 µM]	10%	0%[46.1 µM]	-3%
COc1ccc(CN2CCN(C(=O)c3ccccc3C(=O)c3ccccc3)CC2)cc1OC	/	/	-9%	/	?	/	-2%	-21%
COC(=O)c1ccc(C(=O)OC)c(NC(=O)COC(=O)CCOc2ccc(C)cc2)c1	/	/	18%	/	9%	/	20%	-16%
